# GALR2 agonist = GALR2 receptor agonists, primary screen, cell-based; AID 803, 2007; activation, %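 (tested at 5 µM)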; 140,000 tested, 0.48% active; GALR2-expressing cells, agonist activation read-out; Galanin receptor type 2 (Homo sapiens), O43603;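 active means above mean plus 3 SD of all compounds, about 5% in these data, not always enough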;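 further: 0% = vehicle buffer wells and 100% = reference agonist at full effect; tested in CHO reporter cells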
# RGS16-Gao HTS = modulators of RGS16 binding to Galphao, primary screen, biochemical, human proteins, multiplexed bead flow cytometry | binding response (% of control), % at 10 µM | Regulator of G-protein signaling 16 (Homo sapiens) + Guanine nucleotide-binding protein … | 220,000 tested, 0.38% active | bead-based flow cytometry RGS16-Galphao binding, fluorescence; actives lie on both sides;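 active means below 25% or above 175%, edge rows of some plates excepted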;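 further: Galphao activated by GDP with aluminum fluoride before binding; 100% = wells without compound and 0% = beads without RGS; some results beyond the cut were filed as inactive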
# Insulin prom inh = inhibitors of insulin promoter-driven GFP, primary screen, imaging, TRM-6 cells (human fetal islet line), eGFP reporter, cell count; inhibition, % at 2 µM; 130,000 tested, 0.9% active; AID 1273, 2008; reporter expression induced with tamoxifen;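 active means inhibition above the mean plus 3 SD, with well images judged a real hit on visual review, cut at about 60% in these data, passing the limit was not always enough; inconclusive means inhibition over the cutoff but images rejected on review; inactive means inhibition not above the cutoff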
# PKD1 inh = inhibitors of human PKD1 kinase, biochemical, fluorescence polarization; Serine/threonine-protein kinase D1 (Homo sapiens), Q15139; PKD1 kinase fluorescence polarization assay; inhibition, %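 (about 10 µM by stock and volumes)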; 200,000 tested, 0.056% active;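 active means inhibition of 50% or more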;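 further: controls were vehicle for no effect and a reference inhibitor for full effect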
# Target sequence (Q15139 whole entry, looked up): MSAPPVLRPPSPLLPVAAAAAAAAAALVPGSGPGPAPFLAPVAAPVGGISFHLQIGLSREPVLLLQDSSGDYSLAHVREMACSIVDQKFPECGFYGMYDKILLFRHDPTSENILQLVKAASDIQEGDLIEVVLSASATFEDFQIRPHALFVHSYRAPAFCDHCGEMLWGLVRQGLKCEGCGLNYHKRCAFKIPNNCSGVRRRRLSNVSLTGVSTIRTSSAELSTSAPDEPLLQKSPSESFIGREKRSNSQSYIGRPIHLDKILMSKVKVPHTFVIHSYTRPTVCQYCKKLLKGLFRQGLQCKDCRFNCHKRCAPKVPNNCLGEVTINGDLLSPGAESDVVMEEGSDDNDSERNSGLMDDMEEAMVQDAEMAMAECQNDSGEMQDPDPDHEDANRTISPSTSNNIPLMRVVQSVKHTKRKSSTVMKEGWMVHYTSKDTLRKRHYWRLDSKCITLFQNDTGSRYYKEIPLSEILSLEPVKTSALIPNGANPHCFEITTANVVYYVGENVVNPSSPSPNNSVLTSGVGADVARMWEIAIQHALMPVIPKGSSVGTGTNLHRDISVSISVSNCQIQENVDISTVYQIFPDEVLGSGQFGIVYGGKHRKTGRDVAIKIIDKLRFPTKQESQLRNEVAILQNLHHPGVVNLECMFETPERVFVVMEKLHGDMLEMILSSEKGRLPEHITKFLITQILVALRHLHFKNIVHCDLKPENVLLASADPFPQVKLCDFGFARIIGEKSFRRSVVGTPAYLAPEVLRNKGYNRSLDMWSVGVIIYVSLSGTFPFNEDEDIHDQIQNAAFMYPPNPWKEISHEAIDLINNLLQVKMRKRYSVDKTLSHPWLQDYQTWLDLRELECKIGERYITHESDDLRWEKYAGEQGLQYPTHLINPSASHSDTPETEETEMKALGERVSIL
# HSV augment = enhancers of HSV replication in host cells, fold increase, host cell viability. HSV replication augmentation in cells. maximum fold increase. 220,000 tested, 0.005% active;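 active means peak rise of 1.5-fold or more in the series; inconclusive means self-fluorescent or not available for retest; tested in PC3 cells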;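 further: first round at 10 µM; read as green reporter fluorescence; hits show the peak of a series up to 25 µM; 1 = signal of infected wells without compound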
# Insulin prom inh cell count = also measured in Insulin prom inh; calls as there; normalized cell count, %; measured here: cell count, toxicity; reference of the scale not given here;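 cells exposed to compound for 48 h; stained nuclei by imaging scaled within each plate; lower means fewer cells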
# HSV augment primary fold = second read-out of HSV augment, no call of its own (marks repeat the call); fold increase; compound at 10 µM; measured here: primary screen fold increase 10 uM; tested in PC3 cells;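 GFP signal in the first replicate; 1 = infected wells without compound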
# The depositor's hits bear a star; i = inactive; u = inconclusive; x = no result given.
SMILES,GALR2 agonist,RGS16-Gao HTS,Insulin prom inh,Insulin prom inh cell count,PKD1 inh,HSV augment,HSV augment primary fold
Cc1ccccc1NC(=O)CSc1nnc(Cc2cccn2C)n1-c1ccc(F)cc1,-2.2,83,x,x,-12,i,1
COc1ccc(/C=N/Nc2nc(-c3ccc(Cl)cc3)cc(C(F)(F)F)n2)cc1OC,-0.1,102,x,x,1,i,1.1
COc1ccccc1NCC(=O)N/N=C/C=C/c1ccccc1,-0.2,97,33,128,4,i,0.83
CC(C)(C)c1ccc(N/N=C(\C#N)S(=O)(=O)C(C)(C)C)cc1,x,86,-27,53,1,i,1
CCc1cccc(CC)c1C(O)c1cccnc1 (centres undefined),-0.5,205,x,x,-1,i,0.68
O=C(c1ccc(=O)oc1)N1CCCc2ccccc21,-1.9,76,x,x,-5,i,1.1
Cc1ccc(NC(=S)Nc2ccc(S(=O)(=O)Nc3ncccn3)cc2)cc1Cl,x,98,x,x,x,i,1
O=C(O)c1cccc(CN2C(=O)S/C(=C/c3cccc([N+](=O)[O-])c3)C2=O)c1,x,101,x,x,x,i,1.1
CC(=O)Nc1ccc(C(=O)CSc2nnc(C)o2)cc1,-1.0,104,x,x,-9,i,0.8
CC1CCN(C(=O)COC(=O)c2cc3ccccc3cc2O)CC1,-1.8,95,x,x,-11,i,0.95
Cc1ccccc1/C=N/N1CCN(c2ccccc2)CC1,-0.7,101,-113,102,-8,i,1.1
COC(=O)c1ccc(COc2cc(O)c3c(c2)OC(C)(C)CC3=O)cc1,-1.4,101,-175,106,-5,i,1
Cc1cc(NS(=O)(=O)c2ccccc2)c([N+](=O)[O-])cc1C,-0.9,108,0,124,-3,i,0.96
COc1ccc(-n2cnnc2SCC(=O)Nc2cc(S(=O)(=O)N3CCCCC3)ccc2C)cc1,-0.8,110,-33,105,-18,i,0.84
CCOC(=O)N1CCN(C(=O)c2ccccc2NC(=O)c2ccc(OC)cc2)CC1,0.5,99,29,102,-5,i,0.88
CC(=O)c1cc(-c2ccccc2)n(CC(=O)NCc2cccs2)c1C,-1.2,102,22,85,5,i,1
CCN1CCN(c2ccc(NC(=O)c3cccnc3)cc2Cl)CC1,0.3,101,-50,99,-14,i,0.88
CCOC(=O)N1CCC(Nc2c(OCC)c(=O)c2=O)CC1,-2.8,104,x,x,12,i,0.92
COC(=O)c1cc(Cl)c(NS(=O)(=O)c2ccccc2)cc1OC,0.3,105,26,112,-10,i,0.86
CC(C)(C)CC(=O)Nc1ccc(Nc2ccccc2)cc1,-2.3,99,-31,103,-6,i,0.9
O=C(C[n+]1ccccc1)Nc1nc2ccccc2s1,-0.2,99,8,131,3,x,x
O=C(COC(=O)CCCNC(=O)c1ccc(Cl)cc1)NCc1ccccc1Cl,-2.9,85,9,134,1,x,x
CC(C)(C)c1ccc(COC(=O)CNC(=O)CNC(=O)Cc2ccccc2)cc1,-2.6,101,x,x,7,i,1.1
COc1ccc(-c2nsc(C(=O)N(c3ccc(F)cc3)C(C(=O)NC3CCCC3)c3ccc(OC)cc3)c2N)cc1 (centres undefined),-0.3,99,x,x,16,i,0.73
COc1ccccc1NC(=O)CSc1nnnn1-c1ccc(C(=O)O)cc1,x,102,x,x,7,i,0.98
# (continued)
SMILES,GALR2 agonist,RGS16-Gao HTS,Insulin prom inh,Insulin prom inh cell count,PKD1 inh,HSV augment,HSV augment primary fold
Cc1cc(N2CCN(C/C=C/c3ccccc3)CC2)n2ncnc2n1,-0.7,100,-62,115,-9,i,0.91
CC(C)c1nnc(NC(=O)c2cccnc2)s1,-2.0,104,-29,174,-6,i,1.1
COc1ccc(C2=NOC(C(=O)NCC(C)C)C2)cc1 (centres undefined),-0.7,106,-93,48,0,i,0.86
Cc1cc(S(=O)(=O)NCCCN2CCOCC2)ccc1F,-2.8,101,36,156,-11,i,0.91
Cc1nc2ccccn2c1C(=O)NN,-1.1,99,x,x,-12,i,0.98
COC(=O)c1c(NC(=O)CN2CCN(S(=O)(=O)c3ccccc3)CC2)sc2c1CCC(C)C2 (centres undefined),0.2,105,-21,120,4,i,0.91
COc1cccc(-c2cc(C(=O)Nc3cccc(O)c3)no2)c1,-2.5,96,-3,84,1,i,0.89
CC(=O)c1cccc(NC(=O)c2ccc3c(Cl)c4c(nc3c2)CCCC4)c1,-1.0,111,x,x,-11,i,1.3
O=C(CN1C(=O)c2ccccc2C1=O)N1CCN(C(=O)c2ccco2)CC1,-0.2,96,x,x,0,i,0.88
O=C(C1CCN(S(=O)(=O)c2cccnc2)CC1)N1CCN(C2CCCC2)CC1,-0.3,111,-17,96,1,i,1.1
CCN(CC)C(=O)c1oc2ccc(S(=O)(=O)N3CCCCCC3)cc2c1C,1.6,100,0,72,-8,i,0.89
CC(=O)c1sc(Nc2cccc(C)c2)nc1C,x,106,x,x,9,i,0.93
CCNc1nc(NC(C)CC)nc(Oc2ccc(OCC)nn2)n1 (centres undefined),x,110,x,x,-8,i,0.99
Cc1cc(Cl)cc(Cl)c1OCCOc1cccc2cccnc12,-1.3,101,-84,79,8,i,0.81
O=C(CSc1nnc(Nc2ccccc2F)s1)c1cc2ccccc2o1,-1.1,100,-80,58,2,i,1
COc1cccc(-n2c(SCC(=O)O)nnc2-c2cccnc2)c1,-2.5,96,x,x,-3,i,0.76
COc1ccc(CN(C(=O)c2nsc(Cl)c2Cl)C(C(=O)NC2CCCC2)c2ccc(OC)cc2)cc1 (centres undefined),-1.0,99,x,x,-4,i,0.99
COC(=O)c1cn(C(=O)c2ccccc2F)nc1N,-4.2,110,-14,128,-7,i,1.1
CCn1c(SCc2ccc(F)cc2)nnc1C1CCN(S(=O)(=O)c2ccc(OC)cc2)CC1,-0.9,106,-46,78,-2,i,0.7
CC(C)(C)c1cc(N)n(-c2ccc(C(=O)O)cc2)n1,x,90,-50,51,-2,i,1
CC(C)(C)NC(=O)C(=O)NNC(=O)COc1ccccc1,-1.0,103,-127,79,-8,i,0.94
Cc1noc(C)c1CSc1nc2ccccc2n1CCc1ccccc1,0.2,104,x,x,9,i,0.8
COc1ccc(NC(=S)N2CCN(c3ccccn3)CC2)cc1,-0.7,105,x,x,-3,i,0.95
CS(=O)(=O)N(CC(=O)Nc1ccc(S(=O)(=O)N2CCOCC2)cc1)c1ccccc1Cl,x,105,x,x,-6,i,0.98
N#C/C(=C\c1ccc(-c2ccccc2[N+](=O)[O-])o1)C(=O)Nc1nc(-c2cccs2)cs1,-0.9,103,x,x,-5,i,1

# Shown with two lines to a compound: entries from further up.
# Every second line gives: GALR2 agonist | RGS16-Gao HTS | Insulin prom inh | Insulin prom inh cell count | PKD1 inh | HSV augment | HSV augment primary fold
Cc1nc2ccccn2c1C(=O)NN
 : -1.1 | 99 | x | x | -12 | i | 0.98
COC(=O)c1c(NC(=O)CN2CCN(S(=O)(=O)c3ccccc3)CC2)sc2c1CCC(C)C2 (centres undefined)
 : 0.2 | 105 | -21 | 120 | 4 | i | 0.91
COc1cccc(-c2cc(C(=O)Nc3cccc(O)c3)no2)c1
 : -2.5 | 96 | -3 | 84 | 1 | i | 0.89
CC(=O)c1cccc(NC(=O)c2ccc3c(Cl)c4c(nc3c2)CCCC4)c1
 : -1.0 | 111 | x | x | -11 | i | 1.3
O=C(CN1C(=O)c2ccccc2C1=O)N1CCN(C(=O)c2ccco2)CC1
 : -0.2 | 96 | x | x | 0 | i | 0.88
O=C(C1CCN(S(=O)(=O)c2cccnc2)CC1)N1CCN(C2CCCC2)CC1
 : -0.3 | 111 | -17 | 96 | 1 | i | 1.1
CCN(CC)C(=O)c1oc2ccc(S(=O)(=O)N3CCCCCC3)cc2c1C
 : 1.6 | 100 | 0 | 72 | -8 | i | 0.89

# (next part)
SMILES,GALR2 agonist,RGS16-Gao HTS,Insulin prom inh,Insulin prom inh cell count,PKD1 inh,HSV augment,HSV augment primary fold
Cc1c(Cl)cccc1NC(=O)CCN1CCCCC1,-1.2,42,-27,183,-4,i,0.82
O=C(CSc1nc2ccccc2c(=O)[nH]1)NCc1ccc(Cl)cc1,-0.7,69,-16,107,-1,x,x
O=c1c2ccccc2cnn1Cc1n[nH]c(=S)n1-c1ccccc1,-0.6,94,x,x,-4,i,0.89
Nc1c(C(=O)Nc2ccccc2F)sc2nc(Cc3ccccc3)cc(C(F)(F)F)c12,-1.2,73,16,99,2,u,x
N#Cc1cc([N+](=O)[O-])ccc1NCCN1CCOCC1,x,106,x,x,-3,i,1
O=C(c1c[nH]c2ccc(S(=O)(=O)N3CCOCC3)cc2c1=O)N1CCCC1,-1.3,112,x,x,3,i,0.97
O=c1c2ccccc2cnn1CCOc1ccccc1,-1.7,25,23,68,2,x,x
CCOC(=O)c1cnc2c(C)c(Cl)ccc2c1N1CCOCC1,-1.1,99,x,x,-2,x,x
COc1cccc(C(C2=C(O)CC(C)(C)CC2=O)C2C(=O)CC(C)(C)CC2=O)c1 (centres undefined),0.2,81,21,75,-1,i,1
CCSc1nnc(C)c2ccccc12,-1.2,112,44,163,-9,i,0.91
CCCn1c(C(C)C)n[nH]c1=S,x,96,x,x,x,i,1
CCCN1Cc2cccc(C(=O)Nc3ccc4c(c3)OCO4)c2C1=O,1.1,94,x,x,-7,x,x
O=C(COC(=O)c1ccc(S(=O)(=O)Nc2ccccc2)cc1)NC1CCCC1,x,101,x,x,-5,i,1
COc1ccc([C@@H]2C(C#N)=C(N)S[C@@H](c3ccccc3)[C@@H]2[N+](=O)[O-])cc1,0.5,107,0,142,4,i,0.81
COc1cccc(-c2nnc(SCc3cccnc3)o2)c1,-2.0,97,23,138,-10,i,0.89
CCCCCn1cnc2sc(-c3ccccc3)cc2c1=O,-0.9,99,-30,83,-14,i,0.86
COc1cccc(C(=O)NC2CC3CCCC(C2)N3CC(=O)Nc2ccc(N(C)C)cc2)c1 (centres undefined),-1.0,103,45,97,2,i,0.93
CC(C)N(CC#CCC(O)(c1ccccc1)c1ccccc1)CCO,x,103,x,x,-6,i,0.9
CCC(C)NC(=O)Nc1ccccc1F (centres undefined),0.8,103,-90,111,-4,i,1
CN(c1ccc(C(=O)NCc2ccco2)cc1)S(C)(=O)=O,-3.3,103,43,79,3,i,0.97
COc1cccc(C(=O)Nc2cccc(-c3nnc(-c4ccco4)o3)c2)c1,-0.3,114,-30,100,-4,i,0.88
Cc1cc2c(c(=O)n1Cc1ccccn1)C(c1ccc3c(c1)OCO3)C(C#N)=C(N)O2 (centres undefined),-1.0,95,x,x,-3,i,0.83
O=C(NC1CCCC1)C(c1ccsc1)N(Cc1ccccc1)C(=O)Cc1cccs1 (centres undefined),-4.2,107,-50,127,-9,x,x
Nc1cc(=O)[nH]c(SCC(=O)Nc2ccccc2Sc2ccc(Cl)cc2)n1,x,92,x,x,1,i,0.87
COc1ccc(NCc2nnc(SCC(=O)Nc3cc(C(F)(F)F)ccc3Cl)o2)cc1,1.2,100,7,76,-2,i,0.79
# (further entries)
SMILES,GALR2 agonist,RGS16-Gao HTS,Insulin prom inh,Insulin prom inh cell count,PKD1 inh,HSV augment,HSV augment primary fold
Cc1c(-c2ccccc2)n[nH]c1C(=O)NN,x,100,-77,30,4,i,1
COc1ccc2[nH]c(=O)c(CN(CCCN(C)C)C(=O)Nc3ccccc3)cc2c1,-0.5,139,43,93,-1,i,1
O=C(CCc1ccc(S(=O)(=O)N2CCOCC2)cc1)N/N=C/c1ccc(O)c(O)c1O,-2.3,72,-14,114,3,i,0.96
Cc1cccn2cc(CCNS(=O)(=O)c3cccs3)nc12,x,99,x,x,x,i,0.98
CCOC(=O)Cn1c(C(C)=O)nc2ccccc21,-1.3,108,x,x,-7,i,0.96
COc1ccccc1Nc1ccc(S(=O)(=O)N2CCCCC2)cc1[N+](=O)[O-],-0.5,103,x,x,6,i,0.95
COc1cc(S(=O)(=O)n2ccc(C)n2)c(OC)cc1Cl,0.4,105,22,49,-1,i,0.9
CCCCn1c(SCC(=O)Nc2ccc3c(c2)CCC3)nc2ccccc2c1=O,-0.7,112,-6,129,-8,i,0.85
O=C(NCc1ccccc1Cl)c1ccc(CSc2nc3ccncc3[nH]2)cc1,x,105,x,x,x,i,0.97
CCN(CC)C(=O)c1ccc2c(=O)n(CCOC)c(=S)[nH]c2c1,-2.5,97,1,119,-3,i,1.1
CCCCn1c(-c2c(Cl)c(C)nn2C)n[nH]c1=S,x,98,-93,66,-5,i,0.89
O=C(/C=C/c1ccc(F)cc1)Nc1nc2ccccc2[nH]1,3.7,102,-2,138,0,i,0.92
COc1cc(NC(=O)C2CCC(CNc3c(N4CCCCC4)c(=O)c3=O)CC2)cc(OC)c1 (centres undefined),-1.4,98,x,x,-8,i,0.92
O=C(COC(=O)Cc1ccc(F)cc1)NCc1ccco1,x,112,-9,147,-3,i,0.97

# Screening results (PubChem BioAssay)
